Source: PubChem
KCNQ2 pot – enhances the rat KCNQ2 potassium channel; AID 2239; hit rate 0.54% among 310,000; B-score at 10 µM; CHO-K1 KCNQ2, FluxOR thallium flux fluorescence; stronger effect = higher value;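 active = fluorescence ratio B-score at least 3 SD of library B-scores, with initial fluorescence B-score within 3 SD, cut at about 5.3 in these data; same plate scores as AID 2156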;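 also: B-score of peak minus minimum over baseline fluorescence ratio after K+ and Tl+ stimulus; positive B-score means potentiation of KCNQ2 with more thallium influx and brighter signal; only the inactives scoring about 0 or higher are listed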
Target sequence (O88943 whole entry, looked up): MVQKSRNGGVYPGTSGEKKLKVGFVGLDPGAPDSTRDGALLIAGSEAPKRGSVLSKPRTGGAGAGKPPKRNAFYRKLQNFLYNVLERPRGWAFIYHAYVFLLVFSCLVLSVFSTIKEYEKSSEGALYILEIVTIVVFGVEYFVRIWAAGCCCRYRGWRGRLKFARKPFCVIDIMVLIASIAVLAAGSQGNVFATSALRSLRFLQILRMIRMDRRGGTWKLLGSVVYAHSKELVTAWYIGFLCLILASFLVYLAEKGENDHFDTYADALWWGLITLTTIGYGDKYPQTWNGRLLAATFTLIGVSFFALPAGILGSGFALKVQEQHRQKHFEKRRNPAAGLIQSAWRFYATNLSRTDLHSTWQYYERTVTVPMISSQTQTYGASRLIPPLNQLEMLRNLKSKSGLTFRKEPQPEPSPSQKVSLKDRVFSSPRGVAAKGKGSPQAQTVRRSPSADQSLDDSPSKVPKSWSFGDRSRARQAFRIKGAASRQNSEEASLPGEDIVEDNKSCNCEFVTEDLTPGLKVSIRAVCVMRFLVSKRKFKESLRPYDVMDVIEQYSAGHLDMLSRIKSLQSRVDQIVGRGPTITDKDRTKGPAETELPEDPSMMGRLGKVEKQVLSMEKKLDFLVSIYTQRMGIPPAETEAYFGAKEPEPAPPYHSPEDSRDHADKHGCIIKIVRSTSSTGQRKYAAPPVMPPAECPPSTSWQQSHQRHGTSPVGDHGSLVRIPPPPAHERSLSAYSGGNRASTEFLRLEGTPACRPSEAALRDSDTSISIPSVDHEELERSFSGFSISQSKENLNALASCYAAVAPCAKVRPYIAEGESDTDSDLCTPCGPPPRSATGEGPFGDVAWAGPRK
KCNQ2 pot baseline – further read-out of KCNQ2 pot, marked with its call; B-score; compound at 10 µM; measured here: initial fluorescence intensity artifact check;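 brightness before thallium and not channel activity; 0 = typical well and far values either way flag optical interference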
* hit, by the source's call; / = no result given. Only part of the results is shown. The share of hits here may be higher or lower than overall.

SMILES	KCNQ2 pot	KCNQ2 pot baseline
C#CC[N+]1(C)[C@@H]2CC[C@H]1CC(OC(=O)C(CO)c1ccccc1)C2 (stereo not given in full)	0.33	0.56
Cc1cc(OC(C)C(=O)NCC(O)c2ccccc2)c2c3c(c(=O)oc2c1)CCC3 (stereo not given)	1.8	0.26
O=C(COc1ccccc1)Nc1ccc(Cl)cc1C(=O)c1ccccc1	0.98	0.07
COC(=O)C1=C(c2ccccc2)C[C@@H]2CC[C@H]1N2C(=O)N1CCCC1	0.89	-0.05
CCc1c(C)nc(N)nc1N1N=C1SCC(=O)OC	9.62*	-0.47*
NCCCN1CCN(c2ccccc2)CC1	0.66	-1.39
COc1ccccc1N1CCN(C(CNC(=O)Oc2ccccc2)c2cccnc2)CC1 (stereo not given)	0.81	-0.11
Cc1ccc(C)c(NC(=O)CCNC(=O)N2C[C@H]3C[C@@H](C2)c2cccc(=O)n2C3)c1	0.07	-0.67
C=C1C(=O)[C@@]23C[C@H]4[C@@H]5[C@@]6(C)CCC[C@@]57[C@@H]2[C@@H](O)[C@@H]1C[C@H]3[C@H]7N4C6	1.09	0.01
COc1cccc(N=Cc2c(O)n(Cc3ccco3)c(=O)[nH]c2=O)c1	0.61	0.25
O=C(c1c[nH]c2ccc(S(=O)(=O)N3CCOCC3)cc2c1=O)N1CCC2(CC1)OCCO2	0.64	0.23
COc1ccc(CCn2c(O)c(/C=N/N3CCCCC3)c(=O)[nH]c2=O)cc1OC	1.78	-1.26
Cc1nc2ccsc2c(=O)n1-c1ccccc1Cl	1.48	-0.43
COc1ccc(NC(=O)c2cn(CCC#N)nc2-c2ccccc2)cc1	0.16	-1.67
Cn1c(C(=O)N2CCC3(CC2)OCCO3)cc2c(=O)n(C)c3ccccc3c21	0.17	0.75
Cc1ccc(-n2c(O)c(/C=N/N3CCOCC3)c(=O)[nH]c2=S)cc1	0.45	0.97
Cc1[nH]c2ccccc2c1C(=O)C(=O)N1CC2CC(C1)c1cccc(=O)n1C2 (stereo not given)	0.25	-0.67
Cc1cc(S(=O)(=O)NC(C)C)ccc1OCC(=O)N1CCN(Cc2ccc3c(c2)OCO3)CC1	0.39	-0.85
CCCC12CN3CN(C1)CC(CCC)(C3)C2O (stereo not given)	0.79	-0.38
CN1C(=O)C(=Cc2ccc(N3CCCCCC3)cc2)C(=O)N(C)C1=O	1.31	0.53
N=C1c2ccccc2CN1NC(=O)c1ccc(Cl)cc1	1.72	-2.44
CC(=NCc1cccnc1)c1c(O)n(-c2ccc(Cl)cc2)c(=O)[nH]c1=O	0.55	0.08
O=C(COc1ccc(Cl)cc1)N1CCN(C2CCCC2)CC1	1.11	0.46
Cc1nc2c(-c3ccc(F)cc3)c(C)nn2c(C)c1CCC(=O)N1CCC2(CC1)OCCO2	0.31	-2.39
CC(=O)Nc1cc(C(=O)N2CCC3(CC2)OCCO3)ccc1Sc1ccc(C)cc1	0.5	0.98
CCN1C[C@]2(COC(=O)c3ccccc3N)CC[C@H](OC)C34[C@@H]5C[C@H]6[C@H](OC)[C@@H]5[C@](O)(C[C@@H]6OC)[C@@](O)([C@H]13)[C@@H](OC)[C@@H]42	0.07	-1.12
O=C(NCc1ccccc1)c1cccn(Cc2ccccc2)c1=O	0.01	-1.46
CCC(=NCCCN1CCOCC1)c1c(O)n(Cc2ccccc2)c(=O)[nH]c1=O	1.14	4.71
O=c1c2ccccc2nc(/C=C/c2ccccn2)n1-c1ccccc1	0.38	-1.41
COC(=O)C1=C(N)Oc2cc(C)oc(=O)c2C12C(=O)Nc1ccccc12 (stereo not given)	1.97	-0.01
CCOC(=O)CC1=C(C(=O)OCC)C2(C(=O)N1CC(=O)OC)C(C#N)=C(N)Oc1ccccc12 (stereo not given)	0.76	0.08
COc1ccc(OC)c(N=Cc2c(O)[nH]c(=O)[nH]c2=O)c1	0.37	2.44
COc1cccc(-n2c(/C=C/c3ccccn3)nc3ccccc3c2=O)c1	1.13	1.18
O=c1c2ccccc2nc(-c2ccco2)n1-c1ccccn1	0.03	-0.04
Cc1cc(O)c(CN2CCN(c3ccccc3)CC2)cc1C	1.82	0.85
CCOC(=O)C1=C(C)N(C)C2(C)CC1c1ccccc1O2 (stereo not given)	4.33	0.67
COc1ccc(C2SCC(=O)Nc3c2c(=O)[nH]n3C2CCCCCC2)cc1 (stereo not given)	0.37	0.09
COc1ccc(Cl)cc1C(=O)C1CCCN(Cc2cnc(C)s2)C1 (stereo not given)	0.03	0.87
CC(C)(C)n1c(O)c(C=Nc2ccc3c(c2)CCC3)c(=O)[nH]c1=O	0.05	0.11
Oc1ccc(C2NCc3ccccc3-n3cccc32)cc1Cl (stereo not given)	0.53	/
CC1(C)CN=C(Nc2ccc(F)c(Cl)c2)S1	0.47	0.3
Cc1ccc(-c2nc3ccccc3c(=O)n2-c2cccnc2)cc1	0.13	0.25
CC(Cc1ccccc1Sc1ccccc1)N(C)C (stereo not given)	2.09	0.13
COc1cccc(-n2c(O)c(C=NCCN3CCOCC3)c(=O)[nH]c2=O)c1	1.19	-0.38
COc1cccc(N2C(=O)CC(=O)NC2=O)c1	0.4	-0.79
CN1CCN(Cc2ccc(N)cc2)CC1	0.3	-1.31
COc1cc(CN2CC=C(c3ccc(F)cc3)CC2)cc(OC)c1	1.43	-0.05
Cn1cc(C(=O)N2CCC3(CC2)OCCO3)c2c3ccccc3n(C)c2c1=O	0.23	0.96
O=C1CSC2N1CCNC21CCCCC1 (stereo not given)	1.35	-0.09
COc1ccccc1N1CCN(Cc2cc(C)c(C)cc2O)CC1	0.19	1.36
Oc1cc2c(cc1CN1CCN(c3ccccc3)CC1)OCO2	2.79	0.38
CC1CN(c2cc([N+](=O)[O-])ccc2Cl)CC(C)N1 (stereo not given)	1.31	-1.34
CC(CCc1ccccc1)NCCC#N (stereo not given)	2.41	-0.29
CCN1C[C@]2(CO)CC[C@H](OC)[C@@]34C2[C@H](OC)[C@@](O)(C13)[C@@]1(O)C[C@H](OC)[C@H]2C[C@@H]4[C@@H]1[C@H]2OC	0.89	-2.1
CCCCn1c(O)c(C(CC)=NCCc2ccccc2)c(=O)[nH]c1=O	1.29	0.02
CC(=O)OC1CC[C@@]2(C)C(=CC(=O)C3C4CCC(OC(C)=O)[C@@]4(C)CCC32)C1 (stereo not given in full)	0.57	-0.28
COC(=O)C1=C(C)OC(N)=C(C#N)C12C(=O)Nc1ccccc12 (stereo not given)	0.87	-1.03
CC(C)N(CC#CCC1(O)c2ccccc2-c2ccccc21)C(C)C	0.36	-1.03
O=C(Cc1ccccc1)N1CCN(CCCc2ccccc2)CC1	0.54	-0.55
O=C(Nc1ccc(F)cc1F)c1cccnc1Oc1cccc(C(F)(F)F)c1	0.08	0.95
Next entries:
SMILES	KCNQ2 pot	KCNQ2 pot baseline
Fc1ccc(C2N3CCCN23)cc1 (stereo not given)	1.75	-0.08
Cc1ccsc1CNCCc1ccc(F)cc1	1.23	-1.48
Cc1ccc(-c2ccc(=O)n(CC(=O)N3CCC4(CC3)OCCO4)n2)cc1	0.02	-1.89
Cc1c(O)ccc(C(=O)CN2CC(C)OC(C)C2)c1O (stereo not given)	1.61	0.9
[N-]=[N+]=NCCN1CCC(O)CCC1=O (stereo not given)	0.02	-0.62
CC1=NN(c2ccccc2)C(=O)C1/C=C1\C(=O)NC(=O)N(c2cc(C)cc(C)c2)C1=O (stereo not given)	0.22	-0.98
CCC(C)C12CN3CCN(CC(C)(C3)C1O)C2 (stereo not given)	1.91	0.1
COc1ccccc1-n1c(O)c(/C=N/N2CCCCC2)c(=O)n(-c2ccccc2OC)c1=S	0.69	0.32
CC(C)OC12Oc3ccccc3C=C1N1CCC2CC1 (stereo not given)	1.41	-0.02
C[N+]1=C(/C=C/Nc2ccccc2)C(C)(C)c2ccccc21	0.13	0.96
COc1ccccc1CCNCc1ccc(OC)c(OC)c1OC	0.06	-1.55
C/C(=N\NC(=O)c1ccccc1O)c1c(O)n(Cc2ccccc2)c(=O)[nH]c1=O	1	-0.66
CC(C)n1c(=O)c(C=Nc2ccc(S(N)(=O)=O)cc2)c(O)n(Cc2ccco2)c1=O	1.03	1.83
CN(C)c1cc[n+](CC(O)C[n+]2ccc(N(C)C)cc2)cc1	0.3	0.69
COC(=O)C1=C(c2ccccc2)C[C@@H]2CC[C@H]1N2C(=O)NCC1CC1	1.12	-0.17
N=C1c2ccccc2CN1c1ncccn1	0.64	-2.31
O=C(O)c1ccc(NC(=O)N2C[C@H]3C[C@@H](C2)c2cccc(=O)n2C3)cc1	1.18	0.27
Cc1ccccc1C(O)(Cc1ccccc1)C1CN2CCC1CC2 (stereo not given)	0.62	-1.37
Cc1ccc2c(c1)C(c1ccccc1)=NCC(=O)N2	1.09	0.95
OC(CN1CCC(c2c[nH]c3ccccc23)CC1)C(F)(F)F (stereo not given)	0.86	-0.03
CCc1ccc(NC(=O)CCNC(=O)N2C[C@H]3C[C@@H](C2)c2cccc(=O)n2C3)cc1	0.01	-0.34
O=C1/C(=C\c2ccncc2)N2CCC1CC2	0.35	0.08
Cc1ccc(N)c(C(=O)c2ccccc2)c1	0.54	1.11
Cc1cccc(NP(C)(=O)c2nc3c(s2)CCCC3)c1 (stereo not given)	1.11	0.28
CC(Cl)(Cl)/C(=N/P(=S)(N1CCOCC1)N1CCOCC1)N1CCOCC1	1.74	1.62
COc1ccccc1N(CC(=O)NC1CCCCC1)C(=O)c1cnn(C(C)C)c1	0.05	-0.53
CC1(C)C2SCC(=O)N2CCN1CC(=O)NN (stereo not given)	0.98	0.98
CCCC(=O)Nc1ccc(N2CCN(CC)CC2)c(Cl)c1	1.22	0.79
C/C(=N\N1CCCCCC1)c1c(O)n(-c2ccc(C)cc2)c(=O)[nH]c1=O	0.27	1.3
CCOC(=O)Cn1cc(C=C2C(=O)N(C)C(=O)N(C)C2=O)c2ccccc21	2.49	1.23
Cc1ccc2occ(CN3CC4CC(C3)c3cccc(=O)n3C4)c(=O)c2c1 (stereo not given)	2.56	-0.23
CC(=NCCCN1CCOCC1)c1c(O)[nH]c(=O)[nH]c1=O	0.03	0.07
CN1CCN(C(=O)COc2ccc3ccccc3c2Br)CC1	2.06	-0.21
Clc1ccccc1CN1CCN(c2ccccc2)CC1	0.57	-0.78
COC(=O)C1C2c3ccccc3C(c3ccccc32)C1C(=O)OC (stereo not given)	1.43	-1.04
C[C@H](NC(=O)N1C[C@H]2C[C@@H](C1)c1cccc(=O)n1C2)C(=O)Nc1cccc(F)c1	0.53	0.52
O=C1CCCC2C3CCCN4CCCC(CN12)C34 (stereo not given)	0.74	-0.12
Cn1ncnc2c(=O)n(C)c(=O)nc1-2	2.47	2.37
COc1cccc(C(=O)C2CCCN(Cc3ccccn3)C2)c1 (stereo not given)	0.81	-0.14
Cn1cc(C(O)CN2CCCCC2)c2ccccc21 (stereo not given)	0.68	0.06
Cn1c(O)c(C=NCCCN2CCCC2=O)c(=O)n(C)c1=O	2.31	-1.21
CCN(CC)c1ccc(/C=C2/C(=O)NC(=O)N(CC3CCCO3)C2=O)cc1 (stereo not given)	0.73	0.35
CC1(C)CC(=O)C=C(NCCN2CCN(C(=O)Cc3ccc(Cl)cc3)CC2)C1	0.01	0.01
COC(=O)C1=C(c2cc3ccccc3s2)C[C@@H]2CC[C@H]1N2C(=O)NCC1CC1	2.2	1.41
O=C(N=Nc1c(O)[nH]c(=O)[nH]c1=O)C1COc2ccccc2O1 (stereo not given)	0.05	0.23
CCC1C2CC3C4N(C)c5ccccc5C45CC(C2C5O)N3[C@@H]1O (stereo not given in full)	1.82	0.01
O=C(O)c1nn(Cc2ccc(Cl)cc2Cl)c2ccccc12	0.87	0.52
CCN(CC)CCCN=Cc1c(O)n(-c2cccc(C)c2C)c(=O)[nH]c1=O	0.42	-0.08
O=C(O)CCn1cc(C=C2C(=O)NC(=S)NC2=O)c(-c2cccc(Br)c2)n1	0.37	-0.03
O=C(COC(=O)Cc1ccccc1)NC12CC3CC(CC(C3)C1)C2	2.01	0.01
CSc1ccc(CN2CCN(C(=O)Cc3ccccc3)CC2)cc1	0.4	0.71
FC(F)(F)c1ccccc1NC1=NCCCS1	0.3	-1.04
Cc1cc(/C=C2\C(=O)NC(=O)N(c3cccc(F)c3)C2=O)c(C)n1-c1cc(C(=O)O)cc(C(=O)O)c1	0.3	-1.32
O=Cc1cn(Cc2ccc(F)cc2)c2ccccc12	1.09	0.29
Cc1ncc([N+](=O)[O-])n1CCOc1nonc1N	0.68	0.51
